PKD1 inh – inhibitors of human PKD1 kinase, biochemical, fluorescence polarization | AID 797, 2007 | inhibition, %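 (about 10 µM by stock and volumes)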 | PKD1 kinase fluorescence polarization assay | 200,000 tested, 0.056% active;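 active = inhibition of 50% or more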;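 note: controls were vehicle for no effect and a reference inhibitor for full effect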
Target sequence (Q15139 whole entry, looked up): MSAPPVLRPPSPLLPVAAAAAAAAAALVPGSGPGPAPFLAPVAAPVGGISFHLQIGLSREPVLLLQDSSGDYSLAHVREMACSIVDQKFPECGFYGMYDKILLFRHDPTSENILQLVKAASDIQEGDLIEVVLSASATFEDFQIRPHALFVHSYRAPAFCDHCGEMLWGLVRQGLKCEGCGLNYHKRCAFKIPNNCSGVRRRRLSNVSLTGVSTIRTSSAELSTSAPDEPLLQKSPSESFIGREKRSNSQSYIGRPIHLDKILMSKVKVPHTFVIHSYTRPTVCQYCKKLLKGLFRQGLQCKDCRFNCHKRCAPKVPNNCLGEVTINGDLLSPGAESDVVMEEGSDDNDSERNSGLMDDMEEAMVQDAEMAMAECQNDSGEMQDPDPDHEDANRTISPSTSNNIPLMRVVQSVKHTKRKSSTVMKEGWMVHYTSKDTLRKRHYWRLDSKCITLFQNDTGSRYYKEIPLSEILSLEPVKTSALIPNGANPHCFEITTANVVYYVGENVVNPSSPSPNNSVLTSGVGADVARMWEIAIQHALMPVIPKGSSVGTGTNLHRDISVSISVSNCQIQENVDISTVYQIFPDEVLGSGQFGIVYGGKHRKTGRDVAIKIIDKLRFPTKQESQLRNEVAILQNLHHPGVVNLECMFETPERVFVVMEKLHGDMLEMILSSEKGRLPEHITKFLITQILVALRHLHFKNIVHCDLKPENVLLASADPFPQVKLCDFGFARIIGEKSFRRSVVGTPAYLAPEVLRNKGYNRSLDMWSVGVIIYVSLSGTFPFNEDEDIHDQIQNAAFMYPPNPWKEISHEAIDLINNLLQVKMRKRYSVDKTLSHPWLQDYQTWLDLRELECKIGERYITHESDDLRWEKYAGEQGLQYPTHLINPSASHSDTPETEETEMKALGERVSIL
INS promoter inh – inhibitors of insulin promoter-driven GFP, primary screen, imaging, TRM-6 cells (human fetal islet line), eGFP reporter, cell count | reporter expression induced with tamoxifen | inhibition, % at 2 µM | 130,000 tested, 0.9% active;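 active = inhibition above the mean plus 3 SD, with well images judged a real hit on visual review, cut at about 60% in these data, passing the limit was not always enough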
GALR2 agonist – GALR2 receptor agonists, primary screen, cell-based. Galanin receptor type 2 (Homo sapiens), O43603. GALR2-expressing cells, agonist activation read-out. activation, %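 (tested at 5 µM)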. 140,000 tested, 0.48% active. AID 803, 2007;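 active = above mean plus 3 SD of all compounds, about 5% in these data, not always enough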;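 note: 0% = vehicle buffer wells and 100% = reference agonist at full effect; tested in CHO reporter cells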
HSV replic up – enhancers of HSV replication in host cells, fold increase, host cell viability; HSV replication augmentation in cells; maximum fold increase; 220,000 tested, 0.005% active; AID 1956, 2009;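 active = peak rise of 1.5-fold or more in the series; tested in PC3 cells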;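 note: first round at 10 µM; read as green reporter fluorescence; hits show the peak of a series up to 25 µM; 1 = signal of infected wells without compound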
RGS16-Gao HTS – modulators of RGS16 binding to Galphao, primary screen, biochemical, human proteins, multiplexed bead flow cytometry | bead-based flow cytometry RGS16-Galphao binding, fluorescence; actives lie on both sides | binding response (% of control), % at 10 µM | 220,000 tested, 0.38% active;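 active = below 25% or above 175%, edge rows of some plates excepted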;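 note: Galphao activated by GDP with aluminum fluoride before binding; 100% = wells without compound and 0% = beads without RGS; some results beyond the cut were filed as inactive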
INS promoter inh cell count – further read-out of INS promoter inh, marked with its call; normalized cell count, %; measured here: cell count, toxicity; reference of the scale not given here;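 cells exposed to compound for 48 h; stained nuclei by imaging scaled within each plate; lower means fewer cells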
HSV replic up primary fold – further read-out of HSV replic up, marked with its call; fold increase; compound at 10 µM; measured here: primary screen fold increase 10 uM; tested in PC3 cells;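 GFP signal in the first replicate; 1 = infected wells without compound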
* hit, by the source's call; i = inactive; . = not tested or not shown.

SMILES	PKD1 inh	INS promoter inh	INS promoter inh cell count	GALR2 agonist	HSV replic up	HSV replic up primary fold	RGS16-Gao HTS
O=C(COc1ccccc1)Nc1cccc2c1CCCC2	0	23	68	-2.2	i	0.94	103
N/C(=N\OC(=O)COc1cc(Cl)c(Cl)cc1Cl)c1ccccn1	-2	41	64	.	i	0.86	95
O=C1CC(c2ccsc2)Sc2ccccc2N1 (stereo not drawn)	.	.	.	.	i	1.1	96
Brc1ccccc1-c1nnc2sc(Cc3ccccc3)nn12	-7	8	193	-1.1	i	0.91	100
CC(NC(=O)OCc1ccccc1)C(=O)NCC1CCCO1 (stereo not drawn)	-4	23	93	-3.2	i	1.1	109
CCOc1ccc(-c2noc(=O)[nH]2)cc1	-3	-21	110	-0.4	i	1	110
C/C(=N\NC(=O)c1ccc(NS(=O)(=O)c2cccs2)cc1)c1ccc2c(c1)OCO2	-7	.	.	.	i	0.93	99
COc1cc(/C=C2/C(=O)N(c3ccc([N+](=O)[O-])cc3)N=C2N2CCOCC2)ccc1O	.	.	.	.	i	1.2	106
CC(=O)c1ccc(C(=O)Nc2nnc(-c3ccc(Cl)cc3)o2)cc1	.	.	.	.	i	0.94	101
Cc1ccc(S(=O)(=O)Nc2ncc(C(F)(F)F)cc2Cl)cc1	-7	-18	101	.	i	1	100
COC(=O)C(C)(C)ONC(=O)Nc1ccccc1	-10	35	88	-1.2	i	1	105
O=C(CSc1nnc2c3ccccc3c3ccccc3c2n1)Nc1ccccc1	-5	.	.	-2.0	.	.	91
O=C(/C=C/c1cccc(F)c1)N1CCN(c2ccccn2)CC1	.	.	.	.	i	1.1	103
Nc1nc(SCc2nnc(SCC(=O)O)n2-c2ccccc2)nc2sc3c(c12)CCCC3	-3	-45	141	-2.1	i	0.98	102
O=C(/C=C/c1ccccc1)OCc1cnc(Cl)s1	5	38	121	.	i	1	100
COc1ccccc1CNC(=O)c1cn(C)c(=O)c2cc(OC)c(OC)cc12	-7	10	109	-0.9	i	0.88	100
COc1cc(OC)cc(C(=O)Nc2cc(NC(=O)c3ccco3)ccc2OC)c1	-7	.	.	-4.0	i	0.97	105
COC(=O)c1cc(-c2ccccc2)n[nH]1	-1	29	64	-2.4	i	0.99	103
COC(=O)CC1C(=O)NCCN1C(=O)CSc1nc2ccccc2s1 (stereo not drawn)	-6	.	.	.	i	1	96
O=C(c1ccccc1)N1CCN(C2CCCCCC2)CC1	2	-11	117	-0.4	i	0.79	107
CC(C)C(=O)OCC(=O)NCc1ccccc1Cl	3	.	.	.	i	0.94	105
CC(OC(=O)c1cc(S(=O)(=O)Nc2ccc(F)cc2)ccc1Cl)C(=O)Nc1ccc2c(c1)OCCO2 (stereo not drawn)	8	.	.	-3.2	i	0.85	103
CCOc1cc2[nH]c(=S)n(CCCC(=O)NCc3ccco3)c(=O)c2cc1OCC	2	4	147	-0.8	i	1.1	99
CCOc1ccc(NC(=S)N(Cc2ccc(Cl)cc2)Cc2ccco2)cc1	-1	.	.	-1.3	i	1	100
O=C(Nc1c2c(nn1-c1ccc(F)cc1)CS(=O)(=O)C2)C12CC3CC(CC(C3)C1)C2	4	-20	81	-1.8	.	.	100
COc1ccccc1OCC(=O)Nc1ccc(-c2nnc(-c3ccco3)o2)cc1	-4	-56	154	.	i	0.93	99
COC(=O)c1c(NC(=O)CN2CCN(c3cccc(Cl)c3)CC2)sc(C)c1C	-5	.	.	0.4	i	0.73	98
COc1ccc(CCN2C(=O)CC(Cc3cccc(C)c3)C2=O)cc1OC (stereo not drawn)	-2	.	.	.	i	1.1	39
COc1ccccc1Nc1ncc(C(=O)N2CCN(Cc3ccc(OC)c(OC)c3OC)CC2)c2ccccc12	-2	.	.	.	i	0.8	106
O=C(Nc1cccc(N2CCCC2)c1)c1cccs1	-1	52	122	-2.6	i	0.91	100
O=c1[nH]c(Cc2cccs2)nc2ccccc12	-9	-36	88	-2.0	i	0.91	108
CCN(CC)C1=CC(=O)OC12CCCCC2	-5	.	.	-3.5	i	0.46	102
CC(C)C(=O)Nc1ccccc1Cc1ccccc1	1	.	.	.	i	0.94	97
O=C(Nc1nc2ccccc2[nH]1)c1ccc(S(=O)(=O)N2CCOCC2)cc1	9	10	128	.	i	0.94	101
Cc1ccc(-c2nn3c(-c4ccco4)nnc3c3ccccc23)cc1S(=O)(=O)NCC1CCCO1 (stereo not drawn)	-14	.	.	-0.7	i	0.73	87
CC(=O)c1ccc(S(=O)(=O)N2CCCC2)cc1	9	-6	144	-0.5	i	0.85	106
CCS(=O)(=O)Nc1cccc(-c2nc3cccnc3s2)c1C	0	.	.	-3.9	i	0.95	108
CCC(C)Cn1c(C(C)O)nc2ccccc21 (stereo not drawn)	5	-6	109	-3.0	i	1.1	101
CCCn1nc(C(=O)NC2CCCc3ccccc32)c2ccccc2c1=O (stereo not drawn)	-11	.	.	0.0	i	0.92	109
Cc1c(C(=O)N2CCCC2)nnn1-c1nonc1N	3	50	109	-2.8	i	0.8	94
Cc1[nH]c2ccc(F)cc2c1CCN1C(=O)OC(C)(C)C1(C)O (stereo not drawn)	.	.	.	.	i	1	103
Cc1ccc(CNC(=O)c2ccc(Br)o2)cc1	-5	7	142	-4.5	i	0.61	100
CC(=O)Nc1ccc(S(=O)(=O)N2CCC(n3cnc4cc(F)ccc43)CC2)cc1	11	.	.	-0.8	i	0.8	105
CCCN1CCN(CCCNC(=O)CN2C(=O)COc3ccccc32)CC1	2	.	.	-1.2	i	0.97	100
CC1=NN2C(=N)/C(=C\c3cc(C)n(-c4ccc(C)cc4)c3C)C(=O)N=C2S1	.	.	.	.	i	0.98	100
COc1ccc(C(C(O)C(=O)c2c[nH]c3ccccc23)N2CCN(c3ccccc3)CC2)cc1 (stereo not drawn)	-15	43	99	1.3	.	.	102
COc1ccc(/C=N/Nc2ncnc3sc(C)c(C)c23)cc1	5	-10	114	0.4	i	0.83	102
Cn1c(-c2ccc(Br)o2)nc2cc(Br)ccc21	8	.	.	-0.4	i	0.92	108
COc1ccc(Br)cc1CNc1ccc(S(N)(=O)=O)cc1	-5	53	115	-0.6	i	0.95	109
CCc1ccc(S(=O)(=O)NCC(O)COc2ccc(OC)cc2)cc1 (stereo not drawn)	.	.	.	.	i	0.98	100
N#Cc1cc2c([nH]c1=O)CCCC2	.	.	.	.	i	0.77	104
Cc1ccc2nc(-c3ccc(SCC(=O)O)nc3)[nH]c2c1	2	.	.	0.0	i	0.81	101
COC(=O)C1=C(Nc2ccc(C)cc2)C=C(C)C(C(=O)OC)C1c1ccc(OC)cc1 (stereo not drawn)	5	-378	55	-0.8	i	0.65	117
COc1ccc(C(=O)NNC(=O)C(NC(=O)c2ccccc2NC(=O)c2ccco2)C(C)C)cc1 (stereo not drawn)	-3	-15	58	-0.3	i	1.1	64
CCN1C(=O)C(O)(CC(=O)C(C)(C)C)c2cc(Br)ccc21 (stereo not drawn)	-9	.	.	.	i	1.1	101
O=C1Nc2ccc3sc4ccccc4c3c2C1=O	.	.	.	.	i	0.99	93
CC(C)CCNC(=O)C1C2C=CC3(CN(Cc4ccccc4Cl)C(=O)C13)O2 (stereo not drawn)	-14	.	.	-0.3	i	0.92	88
CCCCNC(=O)CN1C(=O)NC(CCc2ccccc2)C1=O (stereo not drawn)	-3	.	.	.	i	1	99
O=C(CSc1ccc2nnc(-c3ccccc3)n2n1)N1CCN(c2ccccc2)CC1	5	.	.	-0.5	.	.	.
COc1cccc(N=Nc2c(=O)[nH]n3c(=O)cc(C)[nH]c23)c1	-1	-21	94	-2.4	i	0.9	105
Further results.
SMILES	PKD1 inh	INS promoter inh	INS promoter inh cell count	GALR2 agonist	HSV replic up	HSV replic up primary fold	RGS16-Gao HTS
c1ccc(CSc2nnc([C@@H]3CCCN3)o2)cc1	-7	43	187	-0.3	i	0.8	98
Cc1ccc(NN=C2c3ccccc3-c3ccccc32)cc1	-6	10	51	-2.2	i	1.1	89
COc1cc(C(=O)OCC(=O)c2cc(C)n(C)c2C)cc(OC)c1OC	-2	.	.	0.1	i	0.74	101
COc1ccc(C(=O)Nc2ccc(S(=O)(=O)NC(C)(C)C)cc2)cc1[N+](=O)[O-]	14	-20	162	.	i	0.8	104
Cc1cc(C)n(-c2n[nH]c(=O)c3ccccc23)n1	.	.	.	.	i	1.1	89
COC(=O)CNC(c1ccccc1)c1cc(Br)ccc1NC(C)=O (stereo not drawn)	-4	.	.	.	i	1	102
COc1cccc(OC)c1C(=O)Nc1ccc(CN2CCOCC2)cc1	-7	47	110	-1.4	i	0.83	108
CCC(C)[C@H](NC(=O)NC1CCCc2ccccc21)C(=O)O (stereo partly drawn)	-7	33	113	-1.5	i	1.1	103
O=C1NC(=O)/C(=C\c2ccc(N3CCOCC3)o2)N1	5	.	.	.	i	1	99
CCCc1nc2c([nH]1)c(=O)n(C)c(=O)n2C	.	.	.	.	i	1.1	102
Cn1cccc1/C=C(\C#N)C(N)=S	.	.	.	.	i	0.93	106
CCOC(=O)C1=C(CSc2nc3c(cc2C#N)CN(C)CC3)OC(N)=C(C#N)C1c1ccncc1 (stereo not drawn)	1	-40	205	-1.4	i	1.5	102
COC(=O)CNC(=O)c1cccc(-c2ccc(OC)cc2)c1	4	.	.	.	i	0.99	118
COc1ccc(C)cc1NC(=O)CCN1CCCC1	2	14	143	-0.6	i	1	100
CN(C)/C=N/N(C)c1ncccc1[N+](=O)[O-]	.	.	.	.	i	0.85	97
O=C(O)C1CCN(C(=O)c2ccccc2Cl)CC1	-4	20	165	-2.6	i	0.89	116
O=C(/C=C/c1ccc(Cl)cc1Cl)N(Cc1ccccc1)C1CCS(=O)(=O)C1 (stereo not drawn)	6	-3	98	-1.5	i	0.66	111
COc1ccccc1N1CCN(C(=O)CSc2nnc(NC(=O)C3CC3)s2)CC1	-1	12	119	-1.8	i	0.9	102
C=CCOc1ccc(C2c3c(oc4ccccc4c3=O)C(=O)N2CCCN2CCOCC2)cc1 (stereo not drawn)	-11	.	.	-0.6	i	1.1	101
Cc1cc(C)n(-c2ccc(C(=O)NCc3ccc(F)cc3)cc2)n1	-4	.	.	.	i	0.89	101
O=C(c1cc(-c2ccc(Cl)cc2Cl)on1)N1CCN(C(=O)c2ccco2)CC1	3	18	42	-0.7	i	0.9	116
Clc1ccc2nc(-c3ccccc3)nc(C(Cl)Cl)c2c1	.	.	.	.	i	0.64	87

An excerpt of these results, with values under each structure.
Value order – PKD1 inh	INS promoter inh	INS promoter inh cell count	GALR2 agonist	HSV replic up	HSV replic up primary fold	RGS16-Gao HTS
> O=C1NC(=O)/C(=C\c2ccc(N3CCOCC3)o2)N1
 : 5	.	.	.	i	1	99
> CCCc1nc2c([nH]1)c(=O)n(C)c(=O)n2C
 : .	.	.	.	i	1.1	102
> Cn1cccc1/C=C(\C#N)C(N)=S
 : .	.	.	.	i	0.93	106
> CCOC(=O)C1=C(CSc2nc3c(cc2C#N)CN(C)CC3)OC(N)=C(C#N)C1c1ccncc1 (stereo not drawn)
 : 1	-40	205	-1.4	i	1.5	102
> COC(=O)CNC(=O)c1cccc(-c2ccc(OC)cc2)c1
 : 4	.	.	.	i	0.99	118
> COc1ccc(C)cc1NC(=O)CCN1CCCC1
 : 2	14	143	-0.6	i	1	100
> CN(C)/C=N/N(C)c1ncccc1[N+](=O)[O-]
 : .	.	.	.	i	0.85	97
> O=C(O)C1CCN(C(=O)c2ccccc2Cl)CC1
 : -4	20	165	-2.6	i	0.89	116
> O=C(/C=C/c1ccc(Cl)cc1Cl)N(Cc1ccccc1)C1CCS(=O)(=O)C1 (stereo not drawn)
 : 6	-3	98	-1.5	i	0.66	111
> COc1ccccc1N1CCN(C(=O)CSc2nnc(NC(=O)C3CC3)s2)CC1
 : -1	12	119	-1.8	i	0.9	102
> C=CCOc1ccc(C2c3c(oc4ccccc4c3=O)C(=O)N2CCCN2CCOCC2)cc1 (stereo not drawn)
 : -11	.	.	-0.6	i	1.1	101
> Cc1cc(C)n(-c2ccc(C(=O)NCc3ccc(F)cc3)cc2)n1
 : -4	.	.	.	i	0.89	101

Compound activity as filed in PubChem BioAssay.
